# Rango release inh: inhibition of RanGTP-driven Rango-importin beta dissociation | O95149+P62826 | Biochemical FRET Rango-importin beta, RanGTP-induced dissociation | Potency, µM (titrated, usually from 46.1 µM), for the others: at the highest dose activity change, negative = inhibition | 340,000 compounds, 0.071% hits; active means falling FRET ratio curve, often poorly fitted, with flat reads before Ran was added; inconclusive means other falling curves, or compound fluorescence or quenching; inactive means flat or rising ratio curve;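 note: potency is the fitted concentration of half-maximal effect; % of control where 0% means no effect; nearly all actives have a fitted effect of over 45% in size; -100% = wells without RanGTP and RCC1; the record marks most hits as doubtful in a second field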
#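 Two FRET readings bracket the reaction: one 5 min after compound meets Rango–importin beta, another 45 min after RanGTP-RCC1 (0.6 uM Ran, 0.2 uM RCC1, 2 mM GTP) is added. Only the second defines inhibition.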
# GLA inh pH 4.5: blocks human alpha-galactosidase A at pH 4.5; activity change, negative = inhibition, % at 105 µM; P06280; AID 1467; 230,000 tested, under 10 active; purified enzyme, 4-MU-alpha-Gal fluorescence, pH 4.5; inconclusive = small, poorly fitted or top-dose-only inhibition, or a rising curve; inactive = flat fitted curve, though single readings scatter; no compound was filed as active;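 note: 0% = full activity with enzyme and -100% = basal without enzyme; dose as in the result columns while the protocol names 77 µM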
# Target sequence (P06280 whole entry, looked up): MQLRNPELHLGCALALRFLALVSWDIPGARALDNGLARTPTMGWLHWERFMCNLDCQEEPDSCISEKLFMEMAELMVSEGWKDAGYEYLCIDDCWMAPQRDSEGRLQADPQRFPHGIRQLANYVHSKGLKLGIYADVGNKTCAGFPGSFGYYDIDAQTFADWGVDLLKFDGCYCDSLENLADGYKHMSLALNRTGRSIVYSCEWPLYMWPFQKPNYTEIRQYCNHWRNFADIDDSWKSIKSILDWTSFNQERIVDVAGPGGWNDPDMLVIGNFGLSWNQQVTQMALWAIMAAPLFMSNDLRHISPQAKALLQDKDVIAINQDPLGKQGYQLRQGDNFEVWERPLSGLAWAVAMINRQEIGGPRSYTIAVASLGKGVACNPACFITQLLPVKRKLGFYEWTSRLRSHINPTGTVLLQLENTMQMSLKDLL
# miR-21 FLuc: miR-21 reporter, rising signal; HeLa miR-21 FLuc reporter, luciferase, 48 h; 340,000 tested, under 10 active; Potency, µM (top dose mostly 38.3 µM), for the others: at the top dose reporter change, positive = more light; AID 2288; active = well fitted rising curve with a large enough effect; inconclusive = small, poorly fitted or top-dose-only effect; inactive = no such curve, though single readings can be large or run the other way;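 note: % of control where 0% means no effect; miR-21 action dims this reporter so a rising signal means less miR-21 action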
#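 HeLa cells stably expressing CMV-driven firefly luciferase with a downstream miR-21 binding sequence, endogenously expressing miR-21, were treated with titrations (up to about 40uM final) for 48 hours at 37 degree Celsius. Luciferase luminescence was read after lysis.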
# Rango-impB inh: prevents formation of the Rango-importin beta complex; Q14974; Rango CFP/YFP FRET sensor + importin beta, 45 min; Potency, µM (doses to about 92.2 µM), without a hit: at the top dose inhibition of complex formation; 340,000 compounds, 0.031% hits; AID 540263; active = rising FRET ratio curve, often small or poorly fitted; inconclusive = mostly compound fluorescence or quenching in the first reads; inactive = flat curves in all reads;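 note: potency is the fitted concentration of half-maximal effect; 0% = DMSO wells and 100% = buffer wells lacking importin beta; nearly all actives have a fitted effect of over 15% in size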
#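 FRET biosensor Rango (snurportin 1 IBB between N-terminal EYFP and C-terminal Cerulean), 50 nM in PBS/1 mM DTT/0.02% Tween-20/0.1% BSA, preincubated 5 min RT with compound; 0.125 microM importin beta added, 45 min RT, CFP/YFP FRET ratio read.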
# Active calls of the source: *; ? = inconclusive; . = not tested or not shown; [ ] = another dose, or the depositor's remark. Some of the compounds tested. The share of hits here may be higher or lower than overall.
structure	miR-21 FLuc	GLA inh pH 4.5	Rango-impB inh	Rango release inh
COC(=O)c1ccc(C2c3[nH]c4ccccc4c3C[C@H]3C(=O)N(C4CC4)CC(=O)N23)cc1 (some centres undefined)	1%	.	0.6%	24%
CCC(C)(C)n1nnnc1C(c1cc(OC)ccc1OC)N1CCC(C(N)=O)CC1 (centres undefined)	-1%	0	0.1%	-1%
O=C(Nc1ccc(Cl)cc1)Nc1ccccc1NS(=O)(=O)c1cccs1	-4%	4	-0.3%	-15%
Cc1ccc(S(=O)(=O)N2CCC(C(=O)OCC(=O)N(C)C3CCS(=O)(=O)C3)CC2)cc1C (centres undefined)	.	.	2.7%	2%
COc1ccc(S(=O)(=O)N(C)c2ccc(C(=O)NCc3ccco3)cc2)cc1OC	-3%	.	-0.9%	12%
Cc1ccnc(NC(=S)N2CCN(c3cccc(C(F)(F)F)c3)CC2)c1	19%	.	?	-22%
CC(=O)Nc1ccc(S(=O)(=O)NCCc2csc(-c3cccnc3)n2)cc1	-1%	.	2.6%	7%
CCN1CCC(N2CCN(c3ccc(F)cc3)CC2)CC1	0%	.	2.2%	0%

# A run of entries taken from the entries so far, as a working copy:
structure	miR-21 FLuc	GLA inh pH 4.5	Rango-impB inh	Rango release inh
O=C(Nc1ccc(Cl)cc1)Nc1ccccc1NS(=O)(=O)c1cccs1	-4%	4	-0.3%	-15%
Cc1ccc(S(=O)(=O)N2CCC(C(=O)OCC(=O)N(C)C3CCS(=O)(=O)C3)CC2)cc1C (centres undefined)	.	.	2.7%	2%
COc1ccc(S(=O)(=O)N(C)c2ccc(C(=O)NCc3ccco3)cc2)cc1OC	-3%	.	-0.9%	12%
Cc1ccnc(NC(=S)N2CCN(c3cccc(C(F)(F)F)c3)CC2)c1	19%	.	?	-22%
CC(=O)Nc1ccc(S(=O)(=O)NCCc2csc(-c3cccnc3)n2)cc1	-1%	.	2.6%	7%
CCN1CCC(N2CCN(c3ccc(F)cc3)CC2)CC1	0%	.	2.2%	0%

# Following part:
structure	miR-21 FLuc	GLA inh pH 4.5	Rango-impB inh	Rango release inh
CC(=O)Nc1ccc(NC(=O)COC(=O)c2cc(S(=O)(=O)N3CCCC3)ccc2O)cc1	.	.	0.6%	19%
Cc1cnc(C(=O)Nc2ccccc2-n2cccc2)cn1	-13%	-1	-2.5%	0%
CC(=O)c1ccc(NC(=O)CN2CCN(CC(=O)Nc3ccc(C(C)=O)cc3)CC2)cc1	-4%	.	-3.3%	5%
Cc1occc1-c1nnc(SCC(=O)c2ccc3c(c2)OCCO3)n1CC1CCCO1 (centres undefined)	-17%	4	?	-27%
COc1ccc(-c2nc3ccccc3c(=O)n2CCOc2cc(C)ccc2C)cc1	-17%	-20	-1.3%	-6%
CCCCNC(=O)COC(=O)CCC(=O)c1cccs1	-2%	-7	-3.6%	8%
Cc1sc2nc(CSCC(=O)Nc3c(F)cccc3F)[nH]c(=O)c2c1C	.	.	-0.2%	-15%
CCOC(=O)Cn1c(=O)oc2cc(S(=O)(=O)N3CCN(C(=O)OCC)CC3)ccc21	3%	.	1.5%	30%
Cc1ccccc1-n1nnnc1SCc1csc(-c2ccccc2)n1	-6%	-2	-2.7%	0%
Cc1ccc(C)c(NC(=O)C[n+]2ccccc2)c1	0%	.	-4.5%	22%
COc1ccccc1OCCNc1nc2c(c(=O)n(C)c(=O)n2C)n1C	-2%	0	0.0%	-3%
NC(=O)C1C(=O)c2ccccc2C1(C[N+](=O)[O-])c1ccccc1 (centres undefined)	.	.	?	-16%
CCc1cccc(CC)c1NC(=O)C(CC)Sc1nc2ccncc2[nH]1 (centres undefined)	-2%	.	0.4%	-3%
Clc1cccc(NCc2nnc3n2CCCCC3)c1	-8%	2	3.6%	3%
O=C(Nc1cccc(S(=O)(=O)N2CCOCC2)c1)C1CC(=O)N(c2ccc3c(c2)OCCO3)C1 (centres undefined)	.	.	-0.1%	11%
CSCCC(NS(=O)(=O)c1c(Cl)cccc1Cl)C(=O)O (centres undefined)	1%	11	0.6%	?

# Complete entries, quoted from the list.
# Shown for `O=C(Nc1cccc(S(=O)(=O)N2CCOCC2)c1)C1CC(=O)N(c2ccc3c(c2)OCCO3)C1` (centres undefined) : miR-21 FLuc: .; GLA inh pH 4.5: .; Rango-impB inh: -0.1%; Rango release inh: 11%
# Shown for `COc1ccccc1OCCNc1nc2c(c(=O)n(C)c(=O)n2C)n1C` : miR-21 FLuc: -2%; GLA inh pH 4.5: 0; Rango-impB inh: 0.0%; Rango release inh: -3%

# (cont.)
structure	miR-21 FLuc	GLA inh pH 4.5	Rango-impB inh	Rango release inh
COC(=O)c1cn(C)c2ccc(S(=O)(=O)N3CCOCC3)cc2c1=O	0%	-6	0.0%	-10%
COCCn1c(N)c(N(Cc2ccccc2)C(=O)C2CCCC2)c(=O)[nH]c1=O	-2%	2	1.8%	-13%
Cc1c(C(=O)NCc2cccnc2)oc2ccc(S(=O)(=O)N3CCCCC3)cc12	23%	3	1.9%	4%
COc1ccc(S(N)(=O)=O)cc1C(=O)OCCCOc1ccc(F)cc1	-8%	.	0.1%	1%
CCOc1cc(S(=O)(=O)NCc2ccc(OC)cc2)c(OCC)cc1-n1cnnn1	19%	-15	0.3%	0%
Cc1ccc(-c2nc(CSCC(=O)NCc3cccnc3)c(C)o2)cc1	6%	0	6.8%	18%
N=C(N)SCc1ccc(Cl)cc1Cl	11%	3	?	3%
NS(=O)(=O)c1ccc(CCNC(=O)CN2CCCCCC2)cc1	0%	-31	-0.4%	?
COCc1nnc(SCC(=O)NCc2ccccc2)n1-c1ccccc1	-5%	3	0.3%	1%
COCCCNC(=O)CN(CCc1ccccc1)S(=O)(=O)c1ccc(OC)cc1	3%	2	0.6%	-3%
O=C(N/C=C/n1cnc2cc(C(F)(F)F)ccc21)c1ccccc1	-6%	-3	-0.1%	-5%
S=C(NCc1ccccc1)Nc1ccc2ccccc2c1	-58%	.	-0.2%	7%
CCCCCCn1c(CN2CCN(C(=O)OCC)CC2)nc2c1c(=O)n(C)c(=O)n2C	.	.	-14%	-16%
Cc1c(C(=O)O)oc2ccc(S(=O)(=O)NCCC3=CCCCC3)cc12	-1%	-10	-2.5%	0%
CCOc1ccc(-c2ccc(SCC(=O)Nc3nnc(C)s3)nn2)cc1	-26%	-1	-0.7%	-11%
CCN(CCCNC(=O)C1c2ccccc2C(=O)N(CCOC)C1c1ccc(F)cc1)Cc1ccccc1 (centres undefined)	0%	-3	6.3%	25%
C/C(=N\Nc1ncc(Br)cn1)c1cccc([N+](=O)[O-])c1	-29%	.	-2.7%	-4%
O=C(C1=C[C@H](c2ccc3c(c2)OCO3)C[C@H](OCc2ccc(CO)cc2)O1)N1CCCCCCC1	-2%	-9	-4.0%	0%
N#CCN(C(=O)COC(=O)CCCNC(=O)c1ccc(Cl)cc1)c1ccccc1	.	.	1.4%	2%
CCOC(=O)C1CCN(Cc2cc(=O)oc3c(C)c(C)ccc23)CC1	19%	.	-1.6%	14%
COc1ccccc1NC(=O)c1ccc([N+](=O)[O-])cc1[N+](=O)[O-]	9%	-12	-0.5%	2%
CCOc1ccccc1C1CC(c2ccccc2)Nc2nc(N)nn21 (centres undefined)	2%	1	-0.6%	-4%
COc1ccc(COC(=O)C2CCN(S(=O)(=O)c3ccc(OC)c(OC)c3)CC2)cc1	.	.	1.6%	29%
Cc1ccc(C)c(N(CC(=O)N2CCc3ccccc3C2)S(C)(=O)=O)c1	.	.	-1.2%	-3%
COc1ccccc1N1C(=O)C2C3C=CC(CC3)C2C1=O (centres undefined)	2%	.	-1.0%	-14%
O=C(CSc1nnc2scc(-c3ccccc3)n12)N1CCCc2ccccc21	-4%	0	-3.0%	-10%
COC(=O)COc1coc(CN2CCN(c3cccc(Cl)c3)CC2)cc1=O	3%	.	-5.5%	9%
O=c1[nH]cnc2sc3c(c12)CN(Cc1ccccc1)CC3	9%	.	?	-28%
CCCCNC(=S)NNC(=O)c1csc2c1CCC(C)C2 (centres undefined)	1%	-2	1.7%	-6%
CCOc1ccc(C(=O)N2CCC3(CC2)NCCc2[nH]cnc23)cc1	-2%	.	0.7%	10%
CC(=O)Nc1ccc(S(=O)(=O)NCC2CCCO2)cc1 (centres undefined)	.	.	1.6%	-10%
Nc1ccc(-c2nc3cc(N)ccc3o2)cc1	-20%	.	-0.4%	15%
CCOC(=O)c1c(-c2ccccc2)c2cc(OC)ccc2n1CCCN(C)C	?	.	2.3%	?
O=C(c1ccc(NS(=O)(=O)c2cccs2)cc1)N1CCCCC1	-3%	9	-1.0%	-6%
O=C(COC(=O)c1nsc(Cl)c1Cl)NC1CCCCC1	0%	.	0.5%	-5%
C/C(=N\NC(=O)c1cc(Br)ccc1O)c1cccs1	-50%	-17	2.0%	-5%
N#Cc1ccc(CCc2ccccc2)[nH]c1=O	.	.	-0.4%	0%
CN(C)CCNC(=O)c1cc2sc3ccccc3c2s1	-66%	0[21.1 µM]	?	-13%
Cc1cccc(NC(=O)CN2C(=O)NC3(CCCC3)C2=O)n1	.	.	0.2%	2%
Cc1ccn2c(/C=N/OCc3cccc(F)c3)c(-c3ccc(Cl)cc3)nc2c1	0%	-12	1.3%	8%
Oc1c(Br)cc(C2N=C(c3ccccc3Cl)NO2)cc1Br (centres undefined)	-1%	1	3.4%	1%
CCCCN(C)CCNC(=O)c1cc2cc3ccc(OC)cc3nc2o1	-6%	.	0.5%	2%
O=C(O)C[C@H]1c2cc(C(F)(F)F)ccc2S(=O)(=O)N1C1CCN(Cc2ccccc2)CC1	.	.	-1.8%	8%
COc1cc(C2Nn3c(nnc3-c3ccccc3OC)S2)ccc1O (centres undefined)	-5%	-5	-1.2%	10%
COc1ccccc1C(=O)NCCC(=O)N(C)Cc1cccnc1	.	.	-0.9%	16%
COc1cc2c(CCNC(C)=O)c[nH]c2cc1O	.	-15	0.1%	1%
Cc1cccc(C)c1OCC(=O)Nc1ccc(S(=O)(=O)Nc2ccccn2)cc1	-5%	-9	-0.9%	2%
COc1ccccc1NC(=O)COC(=O)CNC(=O)c1ccc(OC)c(OC)c1	-43%	-8	0.2%	-4%
O=C(Nc1ccccc1N1CCCC1)c1cc(S(=O)(=O)N2CCOCC2)ccc1Cl	.	.	1.0%	28%
CSc1ccccc1C(=O)Nc1nccs1	6%	-2	0.6%	-1%
CC(C)c1nnc(NC(=O)C2CCN(c3cnccn3)CC2)s1	-6%	-1	1.6%	1%
CCN1CCCC1CNC(=O)Cn1cccc1C(=O)c1ccccc1C (centres undefined)	-8%	3	-4.7%	-7%
CSc1ccc(CCNC(=O)C2CCCN(c3nn4c(=O)cc(C)nc4s3)C2)cc1 (centres undefined)	5%	.	1.2%	-25%
O=C(CN1C(=O)NC2(CCCC2)C1=O)N1CCCSC1=Nc1ccccc1	.	.	-2.5%	6%
Cc1noc(C)c1COc1ccc(C(=O)NCC2CCCO2)cc1 (centres undefined)	2%	4	5.5%	17%
Cc1cc(C)c(CN2CCN(CCCn3cnc(C(=O)Nc4ccc(C)c(C)c4)n3)CC2)c(C)c1	.	.	3.6%	-1%

# Next part:
structure	miR-21 FLuc	GLA inh pH 4.5	Rango-impB inh	Rango release inh
CCOC(=O)c1c(C)c(C(=O)Nc2ccc3c(c2)OCO3)c(C)n1C	-37%	-17	-3.2%	1%
Clc1ccc(Nc2ncn[nH]2)c(Cl)c1	-19%	4	0.0%	7%
COc1ccc(CC(=O)NCc2cccs2)cc1	8%	-8	3.0%	-15%
COc1c(F)c(F)cc2c(=O)c(C(=O)O)cn(C3CC3)c12	-13%	.	0.3%	2%
COc1ccc(C[C@H]2CN3C(=NC[C@H]3C)N2CCNC(=O)c2ccc(C)c(Br)c2)cc1	-2%	0	5.9%	17%
Cc1ccc(-n2c(SCc3ccc([N+](=O)[O-])cc3)nc3ccccc3c2=O)cc1	-1%	-4	-1.1%	4%

# Bioassay records: PubChem BioAssay, National Center for Advancing Translational Sciences (NCATS)
